Source: PubChem BioAssay (Johns Hopkins Ion Channel Center)
KCNQ2 enhance = enhances the rat KCNQ2 potassium channel | O88943 | CHO-K1 KCNQ2, FluxOR thallium flux fluorescence; hits give high values | B-score at 10 µM | actives 0.54% (n = 310,000);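 active means fluorescence ratio B-score at least 3 SD of library B-scores, with initial fluorescence B-score within 3 SD, cut at about 5.3 in these data; same plate scores as AID 2156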;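 further: B-score of peak minus minimum over baseline fluorescence ratio after K+ and Tl+ stimulus; positive B-score means potentiation of KCNQ2 with more thallium influx and brighter signal; only the inactives scoring about 0 or higher are listed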
Target sequence (O88943 whole entry, looked up): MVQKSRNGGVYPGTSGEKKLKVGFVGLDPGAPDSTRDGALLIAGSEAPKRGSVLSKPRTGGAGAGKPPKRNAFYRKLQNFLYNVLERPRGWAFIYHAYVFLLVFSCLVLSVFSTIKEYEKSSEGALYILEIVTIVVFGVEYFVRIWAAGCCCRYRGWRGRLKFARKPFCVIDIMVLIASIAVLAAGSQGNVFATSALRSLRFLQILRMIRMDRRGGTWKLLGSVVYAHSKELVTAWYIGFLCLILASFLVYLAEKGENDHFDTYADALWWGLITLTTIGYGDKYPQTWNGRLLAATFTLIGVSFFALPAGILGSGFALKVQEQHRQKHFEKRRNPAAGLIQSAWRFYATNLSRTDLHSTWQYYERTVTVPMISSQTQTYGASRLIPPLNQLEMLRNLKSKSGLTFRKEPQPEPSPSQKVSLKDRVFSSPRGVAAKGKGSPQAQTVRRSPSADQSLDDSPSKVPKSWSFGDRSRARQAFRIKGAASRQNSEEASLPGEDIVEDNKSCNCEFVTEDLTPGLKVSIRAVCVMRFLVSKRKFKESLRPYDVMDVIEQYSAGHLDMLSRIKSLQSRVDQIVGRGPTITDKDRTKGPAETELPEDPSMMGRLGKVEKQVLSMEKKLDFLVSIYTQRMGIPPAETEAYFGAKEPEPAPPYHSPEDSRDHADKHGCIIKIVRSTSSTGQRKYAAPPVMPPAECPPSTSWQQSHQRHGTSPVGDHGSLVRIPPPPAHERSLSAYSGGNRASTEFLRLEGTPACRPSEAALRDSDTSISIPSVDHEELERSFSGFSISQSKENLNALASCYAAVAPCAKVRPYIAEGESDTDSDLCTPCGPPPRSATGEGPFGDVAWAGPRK
KCNQ2 enhance baseline = second read-out of KCNQ2 enhance, no call of its own (marks repeat the call); B-score; compound at 10 µM; measured here: initial fluorescence intensity artifact check;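 brightness before thallium and not channel activity; 0 = typical well and far values either way flag optical interference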
The depositor's hits bear a star.

KCNQ2 enhance	KCNQ2 enhance baseline	smiles
0.31	0.06	C=CCN1C(=O)/C(=C2/Sc3ccc(OC)cc3N2C)SC1=Nc1cccc(O)c1
1.9	-1.5	O=C1CC2C(CC(OC(=O)c3ccc(-c4ccccc4)cc3)C2CO)O1 (centres undefined)
0.76	1.4	Cc1ccccc1C(=O)NCCSc1ccccc1
1.1	0.43	CSc1nnc2c3c4c(sc3c(=O)n(-c3ccccc3)n12)CC(C)(C)OC4
1.3	0.48	O=C(CN1CCN(Cc2ccccc2Cl)CC1)N/N=C/c1ccco1
0.42	-2.5	CCN(CC(=O)Nc1c(F)cccc1F)C(=O)c1ccccc1F
1.3	-0.41	CC(C)C[C@H](NC(=O)c1[nH]cnc1C(=O)N[C@@H](Cc1ccccc1)C(=O)OCc1ccccc1)C(=O)OCc1ccccc1
0.68	0.06	Cc1ccc(Cn2nnc3c(=O)[nH]c(C4CCN(S(=O)(=O)c5ccc(F)cc5)CC4)nc32)cc1
0.26	-1.1	CCC(C)NC(=O)c1csc2c1CCCCC2 (centres undefined)
0.07	-0.33	CCOc1ccc(-c2c(C(=O)N/N=C/c3ccc(O)cc3)nnn2-c2nonc2N)cc1
0.69	-2.3	CCOC(=O)c1cc(NC(=O)Nc2nc3ccccc3s2)c(C)nc1C
0.02	-1.2	O=C(CSc1nnc(-c2ccco2)c(-c2ccco2)n1)Nc1ccccc1
0.57	0.04	CCOC(=O)c1c(C)[nH]c(C(=O)O)c1C
5.3*	-0.2*	O=C(CC1CC2CCC1C2)NCc1cccs1 (centres undefined)
0.96	0	COc1ccccc1Oc1coc2c(CN3CCOCC3)c(O)ccc2c1=O
1.4	-1.2	Cc1cc(C)c(NC(=O)CSc2nnc(CNC(=O)c3ccco3)o2)c(C)c1
0.19	0.09	Cc1nnc(NC(=O)CSc2n[nH]c(-c3ccccc3C)n2)s1
0.02	-0.8	Cc1ccc(NC(=O)/C(=C\c2ccc([N+](=O)[O-])cc2)NC(=O)c2ccccc2)cc1
0.03	1.1	CCCCCC1CC(CC(C)C(=O)Nc2nncs2)C(=O)O1 (centres undefined)
0.1	0.01	CCCCN(CCCC)c1cn[nH]c(=O)c1Cl
3.1	0.01	CCCn1nnnc1SCC(=O)Nc1cccc(NC(=O)c2ccco2)c1
0.92	-0.24	O=c1ccn([C@@H]2O[C@H](CO)[C@@H](O)[C@H]2O)c(=O)[nH]1
1.1	0.05	NS(=O)(=O)c1ccc(N/C=C\C(=O)c2ccc3ccccc3c2)cc1
0.27	0.55	CC(=O)Nc1cc(C)c(S(C)(=O)=O)c(C)c1
0.23	-0.33	O=[N+]([O-])c1ccc2nc(NS(=O)(=O)c3ccc(F)cc3)sc2c1
2.3	-0.02	Cc1ccc([N+](=O)[O-])cc1-c1ccc(/C=N\n2nnnc2N)o1
0.12	0.53	CS(=O)(=O)N(CC(=O)NCc1ccccn1)Cc1ccc(Cl)cc1
0.02	1.1	CC(=O)c1cc2c(cc1NC(=O)c1ccc(Cl)cc1)OCCO2
1.2	0.42	Cn1nc(C(F)(F)F)cc1C(=O)NC1CCCCCC1
0.8	-1.9	O=C(COC(=O)c1ccc(O)cc1)Nc1ccc(Cl)cc1
0.12	-2.1	CCOc1ccc(-c2c(C(=O)N/N=C/c3ccc(C)s3)nnn2-c2nonc2N)cc1
1.4	0.11	COCc1ccc(C(=O)N(C)CC2CCCN(CCc3ccc(OC)cc3)C2)o1 (centres undefined)
1.4	-0.42	COc1cc(C)c(CN2CCN(C(C)C(=O)NC(C)c3ccccc3)CC2)cc1OC (centres undefined)
1.2	-0.29	COc1ccc2cc(-c3ccccc3)ncc2c1
0.01	1.1	NC(=O)c1ccccc1NCC(=O)c1ccc(F)cc1
0.39	1.1	O=C(COc1ccc(Br)cc1)c1ccc2c(c1)CCCC2
0.83	-0.77	COC(=O)c1[nH]c2cc(OC)c(OC)cc2c1NC(=O)Oc1ccccc1
0.02	-0.83	Cc1c(Cl)cccc1NC(=O)C(=O)NNS(=O)(=O)c1ccc(F)cc1
0.61	0.26	CC1=CC(C)(C)N(C)C(=O)N1c1ccc(Cl)cc1
0.48	0.26	CCN(CC)CCCNC(=O)C(C)Sc1nc(-c2ccccc2)cc(C(F)(F)F)n1 (centres undefined)
1.3	0.37	CC(OC(=O)CN1C(=O)c2ccccc2C1=O)C(=O)NCc1ccccc1 (centres undefined)
0.97	-0.16	COC(=O)c1c(NC(=O)CN2CCCC(C)C2)c2c(C)cccc2n1C (centres undefined)
0.89	0.06	COc1ccc(CN2CCSCC2)c(C)c1C
0.46	-0.37	c1ccc(-c2noc(-c3cccs3)n2)nc1
0.3	-0.04	O=C1OC(CCl)CN1Cc1c(Cl)cccc1Cl (centres undefined)

Some of these compounds in order of length of the SMILES, descending:
KCNQ2 enhance	KCNQ2 enhance baseline	smiles
0.68	0.06	Cc1ccc(Cn2nnc3c(=O)[nH]c(C4CCN(S(=O)(=O)c5ccc(F)cc5)CC4)nc32)cc1
0.12	-2.1	CCOc1ccc(-c2c(C(=O)N/N=C/c3ccc(C)s3)nnn2-c2nonc2N)cc1
1.1	0.05	NS(=O)(=O)c1ccc(N/C=C\C(=O)c2ccc3ccccc3c2)cc1
0.02	-1.2	O=C(CSc1nnc(-c2ccco2)c(-c2ccco2)n1)Nc1ccccc1
0.69	-2.3	CCOC(=O)c1cc(NC(=O)Nc2nc3ccccc3s2)c(C)nc1C
0.61	0.26	CC1=CC(C)(C)N(C)C(=O)N1c1ccc(Cl)cc1
0.89	0.06	COc1ccc(CN2CCSCC2)c(C)c1C

(continued)
KCNQ2 enhance	KCNQ2 enhance baseline	smiles
1.5	-0.48	Cc1ccc(N2C(=O)c3ccc(C(=O)N4CCOCC4)cc3C2=O)cc1C
1.3	-0.27	CC1CN(C(NC(=O)C(C)(C)C)C(Cl)(Cl)Cl)CC(C)O1 (centres undefined)
2.1	-1.3	COc1ccc(S(=O)(=O)N2CCCC(C(=O)NCc3ccccn3)C2)cc1 (centres undefined)
0.24	2	CC(C)CCC(=O)N1CCOC1=O
1	-0.09	C(=N\Nc1ccccn1)/c1c[nH]c2ccccc12
0.01	-0.59	NC(=O)c1ccccc1NC(=O)CCCc1ccccc1
1.4	-0.11	CC1Cc2ccccc2N1C(=O)COC(=O)Cc1ccc(F)cc1 (centres undefined)
0.69	0.56	O=C(CN(C(=O)CNS(=O)(=O)c1ccccc1)c1ccc2c(c1)OCCO2)NCc1ccco1
0.47	-1.9	Cn1c(S(=O)(=O)O)nc2ccccc21
0.14	1.2	O=C(c1cccs1)c1c[nH]cc1-c1ccccc1
0.13	-0.52	O=C(Cn1cc(C(=O)c2ccco2)c2ccccc21)NC1CCCCC1
1.2	-0.01	CCOc1cc2[nH]c(=O)n(CCCC(=O)NCc3ccc(OC)cc3)c(=O)c2cc1OCC
0.7	-0.8	Cc1cccc(Cn2cnc3c(N)c(C)c(C)cc32)c1
0.67	-0.07	CCCc1[nH]n(-c2ccc(F)cc2)c(=O)c1C=Nc1cccc(F)c1
0.28	0.06	O=[N+]([O-])c1cc(-c2nnc(Nc3ccccc3)c3ccccc23)ccc1N1CCOCC1
1.8	-1.4	COC(=O)c1cc(CNC(=O)c2ccc(N3CCCC3)c([N+](=O)[O-])c2)ccc1OC
0.86	0.87	Cc1cc(OCc2cc3c(cc2Cl)OCO3)c2c(C)cc(=O)oc2c1
0.93	2.8	CCOc1cc2c(cc1C=O)OC(C)C2 (centres undefined)
0.23	0.41	CSc1cc(-c2ccc(Cl)cc2)c(C(=O)NC(C)C)s1
1.6	1.3	NC(=O)c1cccnc1OCC(F)(F)F
0.14	0.04	Cc1ccccc1C(=O)Nc1ccnn1C1CCN(Cc2cccnc2)CC1
1.1	0.11	O=C(c1ccccc1F)N(Cc1ccccc1)C1CCS(=O)(=O)C1 (centres undefined)
0.37	-0.48	COC(=O)CSc1nnc(CNC(=O)c2ccc(OC)c(OC)c2)n1C
0.46	0.23	C[C@]12C=CC(=O)C=C1CC[C@@H]1[C@@H]2C(=O)C[C@@]2(C)[C@H]1CC[C@]2(O)C(=O)CO
0.74	2.1	Cc1cc(=O)oc(C)c1C(=O)NCc1ccc(F)cc1
0.59	1.4	COc1ccc(-c2nnc(SCc3nnc(-c4ccccc4)o3)n2C)cc1OC
0.53	0.11	CCNC(=O)C1CC(=O)N(Cc2ccc(F)cc2)C(=Nc2ccc(OC)cc2)S1 (centres undefined)
0.31	1.9	COC(C[C@@H](O)CC(=O)[C@@H](C)OCc1ccccc1)OC
0.09	0.12	c1ccc(CCn2nnnc2C(c2cccnc2)N2CCOCC2)cc1 (centres undefined)
0.66	0.85	CCCN(CCC)C(=O)COc1cc(=O)n(CC)c2ccccc12

Complete entries from above. Values in the order: KCNQ2 enhance	KCNQ2 enhance baseline
CC1Cc2ccccc2N1C(=O)COC(=O)Cc1ccc(F)cc1 (centres undefined) as listed: 1.4	-0.11
CCOc1cc2[nH]c(=O)n(CCCC(=O)NCc3ccc(OC)cc3)c(=O)c2cc1OCC as listed: 1.2	-0.01
COC(=O)c1[nH]c2cc(OC)c(OC)cc2c1NC(=O)Oc1ccccc1 as listed: 0.83	-0.77
COCc1ccc(C(=O)N(C)CC2CCCN(CCc3ccc(OC)cc3)C2)o1 (centres undefined) as listed: 1.4	0.11
C(=N\Nc1ccccn1)/c1c[nH]c2ccccc12 as listed: 1	-0.09

Next section:
KCNQ2 enhance	KCNQ2 enhance baseline	smiles
2	-0.92	CSc1nc(N)nc(SCC(=O)Nc2ccc(Cl)cc2)c1C#N
0.1	-1.6	CCOC(=O)c1ccc([N+](=O)[O-])cc1NC(C)=O
0.83	-1.1	COc1cc2c(cc1OC)C(c1ccsc1)CC(=O)N2 (centres undefined)
0.3	5.7	Cc1cc(/N=C/C=C2\N(C)c3ccccc3C2(C)C)n(CCC#N)n1
0.55	0.43	CC1CCCN(CCCNC(=O)CN2C(=O)CSc3ccc(S(=O)(=O)N4CCOCC4)cc32)C1 (centres undefined)
0.85	0	CC(=O)c1ccc(N2CCN(S(=O)(=O)c3ccc4c(c3)CC(=O)N4)CC2)cc1
0.61	-0.02	O=C(O)CCC(=O)Nc1nc2nc(-c3ccccc3)cc(-c3ccccc3)n2n1
1.1	-0.59	COc1ccccc1/C=N/NC(=O)c1ccc(=O)n(C)c1
0.69	-0.21	COc1cccc(C(=O)N2C(C(=O)O)CSC2c2ccccc2Cl)c1 (centres undefined)
0.15	0.16	COc1ccc(NC(=S)Nc2cc(C)cc(C)n2)cc1OC
0.29	0.49	C=CCN1CCN(C(=O)c2ccc3c(c2)OCO3)CC1
0.07	-0.51	N#Cc1ccc(C(=O)CN2CCN(c3ccccc3)CC2)cc1
2.7	0.6	Cc1nnc(SCC(=O)NNC(=O)COc2ccc(Cl)cc2)s1
0.75	-0.48	CC(C)Sc1snnc1-c1ccccc1
0.85	1	CC(C)c1nc2oc3c(NCc4ccccn4)ncnc3c2c2c1COC(C)(C)C2
0.03	1.9	COc1ccc(CCNC(=O)CSc2cc(=O)[nH]c(N)n2)cc1OC
0.16	-1.1	CC(C)(C)c1csc(N/N=C/c2ccc(O)cc2)n1
1.5	-2.1	CCc1nc2sc3c(c2c(=O)o1)CCCC3
1.7	-0.08	COc1ccc(/C=C/C(=O)NCC(=O)N/N=C/c2cc(Br)ccc2OC)cc1
0.01	1	COc1cccc(NC(=S)NNC(=O)CCn2cc([N+](=O)[O-])cn2)c1
0.87	1.4	Cc1c(C(=O)OCC(=O)Nc2ccc(S(N)(=O)=O)cc2)oc2c1ccc1ccccc12
1	0.57	S=C(Nc1ccccc1)Nc1ccccc1Br
0.03	-1	O=C(CSc1ccc(-c2ccccn2)nn1)Nc1cccc(F)c1
0.36	1.6	CCOc1ccc(C2c3c(oc4ccccc4c3=O)C(=O)N2CCCN2CCOCC2)cc1 (centres undefined)
0.09	-0.6	CSc1nc2n(n1)C(c1cccc(F)c1)C(C(=O)Nc1ccc(C)cc1C)=C(C)N2 (centres undefined)
0.14	-1.1	CCCN(CCC)c1nc(N)c(C#N)c(CC#N)c1C#N
1.8	0.12	COc1ccc(Cl)cc1S(=O)(=O)N1CCN=C1c1ccccc1
0.02	-0.41	COc1cc2c(cc1OC)-c1nnnn1C(C)(C)C2
1.2	-0.42	COc1ccc(/C=N/NC(=O)c2ccoc2C)cc1CN1CCN(c2ccc(F)cc2)CC1
0.23	-1.9	CCOc1cc2[nH]c(=S)n(Cc3ccc(C(=O)N4CCN(C)CC4)cc3)c(=O)c2cc1OCC
0.1	0.31	COc1nc(-c2ccccc2Cl)ccc1C#N
1.1	0.06	CS(=O)(=O)N(CC(=O)N1CCCCC1)Cc1ccccc1
1.3	-1.8	COc1cccc(NC(=O)c2sc3nc4n(c(=O)c3c2C)CCC4)c1
0.93	0.7	Cc1cc2cc(CN(Cc3ccc4c(c3)OCO4)C(=O)c3ccco3)c(=O)[nH]c2cc1C
0.46	-0.28	C/C(=N\NC(=O)c1c(Br)c(C)nn1C)c1ccc(NC(=O)c2ccoc2C)cc1
0.37	0.2	CCOC(=O)Cc1c(C)nc2cc(-c3ccc(C(C)(C)C)cc3)[nH]n2c1=O
1.1	0.13	N/C(=N\O)c1ccc(Oc2ccccc2Cl)c([N+](=O)[O-])c1
0.45	-1.9	CCOC(=O)N1CCC(NC(=O)C2CCCCN2S(=O)(=O)c2ccc(F)cc2)CC1 (centres undefined)
0.64	-1.3	CC(C)CN(C(=O)CCC(=O)OC(C)C(=O)Nc1cccc(C#N)c1)c1c(N)n(CC(C)C)c(=O)[nH]c1=O (centres undefined)
1.1	0.31	NNc1ccc(Cl)nn1
0.26	3.4	CN(C)S(=O)(=O)c1ccc(C(=O)Nc2cccnc2)cc1
1.1	1.8	COc1ccccc1OCCNC(=O)C1CC(=O)N(Cc2ccc(C)cc2)C1 (centres undefined)
0.66	1.3	CCN(CC)CCCNC(=O)CCC(=O)Nc1ccc2nc(N3CCC(C)CC3)cc(C)c2c1
0.05	-0.3	Cc1ccccc1NS(=O)(=O)c1ccc(Cl)cc1

An excerpt. The share of hits here may be higher or lower than overall.
